Rango release inh: prevents RanGTP from dissociating the Rango-importin beta complex | Potency, µM (titrated, usually from 46.1 µM), without a hit: top-dose activity change, negative = inhibition | AID 540253 | actives 0.071% (n = 340,000) | O95149+P62826 | Biochemical FRET Rango-importin beta, RanGTP-induced dissociation; active means falling FRET ratio curve, often poorly fitted, with flat reads before Ran was added; inconclusive means other falling curves, or compound fluorescence or quenching; inactive means flat or rising ratio curve;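 note: potency is the fitted concentration of half-maximal effect; % of control where 0% means no effect; nearly all actives have a fitted effect of over 45% in size; -100% = wells without RanGTP and RCC1; the record marks most hits as doubtful in a second field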
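FRET read at 45 min, room temperature: inhibitors block the CFP/YFP signal rise when RanGTP (0.6 uM Ran, 2 mM GTP, 0.2 uM RCC1) frees Rango (0.1 uM) from importin beta (0.25 uM). Pre-read after 5 min compound exposure flags interference.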
Rango-impB inh: Rango-importin beta binding inhibition; actives 0.031% (n = 340,000); AID 540263; Rango CFP/YFP FRET sensor + importin beta, 45 min; Q14974; Potency, µM (doses to about 92.2 µM), for the others: top-dose inhibition of complex formation; active = rising FRET ratio curve, often small or poorly fitted; inconclusive = mostly compound fluorescence or quenching in the first reads; inactive = flat curves in all reads;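 note: potency is the fitted concentration of half-maximal effect; 0% = DMSO wells and 100% = buffer wells lacking importin beta; nearly all actives have a fitted effect of over 15% in size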
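FRET biosensor Rango (snurportin 1 IBB between N-terminal EYFP and C-terminal Cerulean), 50 nM in PBS/1 mM DTT/0.02% Tween-20/0.1% BSA, preincubated 5 min RT with compound; 0.125 microM importin beta added, 45 min RT, CFP/YFP FRET ratio read.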
GLA inh pH 4.5: alpha-galactosidase A (human) inhibition, pH 4.5 | P06280 | purified enzyme, 4-MU-alpha-Gal fluorescence, pH 4.5 | activity change, negative = inhibition, % at 105 µM | 230,000 tested, under 10 active; inconclusive = small, poorly fitted or top-dose-only inhibition, or a rising curve; inactive = flat fitted curve, though single readings scatter; no compound was filed as active;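 note: 0% = full activity with enzyme and -100% = basal without enzyme; dose as in the result columns while the protocol names 77 µM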
Target sequence (P06280 whole entry, looked up): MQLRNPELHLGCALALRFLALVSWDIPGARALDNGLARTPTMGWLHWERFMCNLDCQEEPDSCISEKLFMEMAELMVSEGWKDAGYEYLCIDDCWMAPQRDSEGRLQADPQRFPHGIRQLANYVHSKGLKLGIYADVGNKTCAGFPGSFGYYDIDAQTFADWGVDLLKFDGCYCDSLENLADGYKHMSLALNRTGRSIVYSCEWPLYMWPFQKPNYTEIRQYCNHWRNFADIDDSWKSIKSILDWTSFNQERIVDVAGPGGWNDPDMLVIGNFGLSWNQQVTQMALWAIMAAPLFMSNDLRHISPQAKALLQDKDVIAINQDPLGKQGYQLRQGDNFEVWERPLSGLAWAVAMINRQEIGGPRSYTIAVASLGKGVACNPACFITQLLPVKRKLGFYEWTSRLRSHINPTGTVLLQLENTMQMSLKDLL
miR-21 FLuc: raises the signal of a miR-21 reporter. HeLa miR-21 FLuc reporter, luciferase, 48 h. Potency, µM (highest dose often 38.3 µM), for the others: at the top dose reporter change, positive = more light. 340,000 tested, under 10 active. AID 2288; active = well fitted rising curve with a large enough effect; inconclusive = small, poorly fitted or top-dose-only effect; inactive = no such curve, though single readings can be large or run the other way;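 note: % of control where 0% means no effect; miR-21 action dims this reporter so a rising signal means less miR-21 action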
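HeLa cells stably expressing CMV-driven firefly luciferase with a downstream miR-21 binding sequence, endogenously expressing miR-21, were treated with titrations (up to about 40uM final) for 48 hours at 37 degree Celsius. Luciferase luminescence was read after lysis.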
An asterisk follows results filed as active; ? = inconclusive; nt = not tested or not shown; & = joins results of further samples.

SMILES	Rango release inh	Rango-impB inh	GLA inh pH 4.5	miR-21 FLuc
COc1ccc(C(=O)n2cc(C(=O)c3cc(C)ccc3O)cn2)cc1	-2%	4.9%	2	5%
O=C(Nc1nc2ccccc2n1Cc1ccccc1)c1ccco1	?	-2.4%	-6	19%
O=C(NCCCN1CCOCC1)c1ccc(N2CCCC2)c([N+](=O)[O-])c1	8%	6.8%	5	-11%
CN(C)C(=O)C(OC(=O)c1ccc2c(c1)CCCC2)c1ccccc1 (stereo not given)	-2%	3.6%	nt	-1%
Cc1csc(NC(=O)c2ccc3ccccc3n2)n1	21%	2.6%	nt	-31%
O=C(Nc1ccccc1)c1ccc(Nc2c([N+](=O)[O-])cc([N+](=O)[O-])c3ccccc23)cc1	-5%	?	-4	-2%
CN(CC(=O)NC1CC(C)(C)NC(C)(C)C1)S(=O)(=O)c1cc(Cl)ccc1Cl	34%	-1.1%	5	-4%
COc1ccc(N2CCN(C(=O)CSc3nnc(COc4cccc5cccnc45)o3)CC2)cc1	1%	-2.0%	5	16%
Cc1cc(=O)[nH]c2nnnn12	-17%	-1.0%	5	0%
CCCCSc1nc(C)nc2c1c(=O)n(C)c(=O)n2C	10%	0.6%	10	-1%
C/C(=C\C(=O)c1ccc(Br)cc1)NCc1ccc2c(c1)OCO2	2%	-0.6%	10	-8%
CCc1ccc(Nc2ccc3nonc3c2[N+](=O)[O-])cc1	-8%	2.8%	nt	nt
CC(C)(C)c1cc(=O)n2[nH]c(N)nc2n1	22%	1.1%	2	1%
CC1CN(S(=O)(=O)c2cc(C(=O)NCCC3=CCCCC3)ccc2Cl)CC(C)O1 (stereo not given)	-11%	-1.9%	nt	nt
CN(C)CCCCOc1ccc(F)cc1	3%	-0.2%	3	-2%
COc1ccc(-c2csc3nc(C)nc(N4CCCCC4)c23)cc1OC	16%	-2.0%	-6	13%
CCOC(=O)C(C)Sc1ncc(-c2ccc(Cl)cc2)cn1 (stereo not given)	-1%	1.2%	-4	-24%
CCn1c(CNC(=O)c2ccc(OC)c(OC)c2)nnc1SCC(=O)Nc1ccc(OC)cc1	?	-0.2%	10	-10%
CS/C(=C\[N+](=O)[O-])Nc1ccc(Cl)cc1	-17%	-1.1%	2	14%
C=CCN=C1CC(C)(C)C(C(=O)OC)C(O)=C1C(=O)CCC (stereo not given)	6%	1.1%	-9	-5%
COc1cccc(NC(=O)C2C3CCC4C(CCC32)C4(Cl)Cl)c1 (stereo not given)	3%	-2.6%	-10	-7%
C/C(=N\NS(=O)(=O)c1ccccc1)c1cc(Cl)cc(Cl)c1O	3%	0.3%	3	-46%
Cc1ccc2nc(Nc3nc(C)cc(-c4ccccc4)n3)[nH]c(=O)c2c1	12%	-3.7%	-21	-5%
CC(OC(=O)c1ccc(NC(=O)CC#N)cc1)C(=O)Nc1nc(-c2ccccc2)cs1 (stereo not given)	?	?	nt	nt

Laid out differently: 5 of the compounds above
| mol | Rango release inh | Rango-impB inh | GLA inh pH 4.5 | miR-21 FLuc |
| --- | --- | --- | --- | --- |
| CC(C)(C)c1cc(=O)n2[nH]c(N)nc2n1 | 22% | 1.1% | 2 | 1% |
| CC1CN(S(=O)(=O)c2cc(C(=O)NCCC3=CCCCC3)ccc2Cl)CC(C)O1 (stereo not given) | -11% | -1.9% | nt | nt |
| CN(C)CCCCOc1ccc(F)cc1 | 3% | -0.2% | 3 | -2% |
| COc1ccc(-c2csc3nc(C)nc(N4CCCCC4)c23)cc1OC | 16% | -2.0% | -6 | 13% |
| CCOC(=O)C(C)Sc1ncc(-c2ccc(Cl)cc2)cn1 (stereo not given) | -1% | 1.2% | -4 | -24% |

Other entries
SMILES	Rango release inh	Rango-impB inh	GLA inh pH 4.5	miR-21 FLuc
CC(C)Cn1c(N)c(C(=O)CSc2nc3ncc(Cl)cc3[nH]2)c(=O)n(C)c1=O	-4%	4.1%	nt	nt
Nc1nnc(Cc2c[nH]c3ccccc23)s1	-11%	?	5	-9%
N#CC12COC3(CCCCC3C1(C#N)C#N)OC2=N (stereo not given)	?	?	12	4%
CCC(=O)Nc1cc(-c2nn(C)c(=O)c3ccccc23)ccc1OC	3%	-0.7%	-7	-8%
COc1ccc(C2=NN(c3ccc(C(=O)O)cc3)C(c3ccc(OC)c(OC)c3)C2)cc1 (stereo not given)	?	?	nt	-107%
Cc1ccnc(NC(=O)c2ccc(S(=O)(=O)N3CCCC3)cc2)c1	5%	-2.1%	nt	nt
Cc1cc(Br)ccc1NC(=O)CN(C)C(=O)c1cc(S(=O)(=O)N(C)C)ccc1N1CCCC1	25%	0.1%	nt	-1%
CN(C)C(=O)N1CCCC(C(=O)NCc2cccs2)C1 (stereo not given)	11%	?	-6	-1%
COc1ccc(-c2ccc(C(=O)C3CC3)cc2)cc1	14%	-4.4%	nt	-58%
COc1ccc(CC(NC(C)=O)C(=O)NC2CCN(C(=O)c3cnccn3)CC2)cc1 (stereo not given)	3%	-3.9%	6	-3%
N#CC(c1cccc(Cl)c1)c1ccc2c(C(F)(F)F)cc(C(F)(F)F)nc2n1 (stereo not given)	-16%	4.3%	-1	?
O=C(NCCCc1ccccc1)c1cnc2n(c1=O)CCS2	-10%	-2.2%	-4	-51%

2 of the compounds above, with values ahead of the structure.
| Rango release inh | Rango-impB inh | GLA inh pH 4.5 | miR-21 FLuc | SMILES |
| --- | --- | --- | --- | --- |
| 11% | ? | -6 | -1% | CN(C)C(=O)N1CCCC(C(=O)NCc2cccs2)C1 (stereo not given) |
| 14% | -4.4% | nt | -58% | COc1ccc(-c2ccc(C(=O)C3CC3)cc2)cc1 |

Returning to the listing; the 2 compounds before the break are reprinted first.
SMILES	Rango release inh	Rango-impB inh	GLA inh pH 4.5	miR-21 FLuc
N#CC(c1cccc(Cl)c1)c1ccc2c(C(F)(F)F)cc(C(F)(F)F)nc2n1 (stereo not given)	-16%	4.3%	-1	?
O=C(NCCCc1ccccc1)c1cnc2n(c1=O)CCS2	-10%	-2.2%	-4	-51%
CC(C)OC(=O)CCCCCN1C(=O)CSC1=S	5%	-0.6%	5	0%
COc1cc(NC(=O)c2ccc(C)cc2)ccc1NC(=O)c1cc2ccccc2o1	21%	3.7%	nt	0%&-10%
Cc1cnc(N)c2c(=O)oc3ccccc3c12	-13%	?	nt	-22%
CN(CC(=O)Nc1c(Cl)cccc1Cl)C(=O)c1cccc(-n2cccc2)c1	23%	-2.4%	nt	nt
O=C1CC(=O)Nc2cc(S(=O)(=O)N3CCOc4ccc(Cl)cc43)ccc2N1	-13%	2.2%	nt	4%&6%
O=C(Cn1c(=O)n(Cc2ccco2)c(=O)c2c3c(sc21)CCCCC3)Nc1ccccc1	-7%	-1.8%	-29	-1%
O=C(NCc1ccc(Cl)cc1)c1cccnc1	-1%	?	-3	5%
CN(C(=O)c1ccc(NC(=O)Cc2ccc(NC(=O)C3CCN(C(=O)CCc4ccccc4)CC3)cc2)cc1)C1CCCC1	-9%	3.9%	nt	nt
CN(C)CCCNC(=S)NCC(c1ccc(Cl)cc1Cl)c1c[nH]c2ccccc12 (stereo not given)	4%	?	nt	?
O=C(Nc1nnc(C2CC2)s1)c1cccs1	-5%	7.3%	nt	-38%
CC(=O)CSc1nnc2cc(C)c3ccccc3n12	-7%	-2.0%	-3	-20%
COc1ccc(OC)c(CN2CCN(Cc3cc(OC)c(OC)c(OC)c3)CC2)c1	16%	0.6%	nt	-6%
CC(/C=C/c1ccccc1)=N\Nc1nc(C)cc(C)n1	-9%	-0.9%	-2	-28%
Cc1ccccc1-n1c(SCC(=O)N2CCCC2)nnc1-c1ccccn1	1%	-1.6%	1	0%
CCOC(=O)Cc1csc(SC(C)C(=O)NCC(=O)Nc2ccc(F)c(F)c2F)n1 (stereo not given)	-14%	1.2%	nt	2%
CC(OC(=O)c1ccc([N+](=O)[O-])o1)C(=O)NC1CCCCC1C (stereo not given)	-16%	?	nt	nt
Cc1ccc(Nc2nc(N)c(C#N)c(CC#N)c2C#N)cc1	-11%	?	5	-32%
N/C(=N\OC(=O)/C=C/c1ccccc1)c1ccccc1	3%	-1.0%	5	-52%
Cc1cccc(N2CCN(c3nc4ccccc4n4cnnc34)CC2)c1C	23%	-4.4%	7	-4%
COc1ccc(N2CCN(C(=O)CCCCn3c(=O)[nH]c4ccsc4c3=O)CC2)cc1	-1%	0.0%	1	1%&11%
COc1ccc(OC)c(S(=O)(=O)N2CCN(c3ncccn3)CC2)c1	0%	-3.7%	nt	3%
Cc1nnsc1C(=O)Nc1ccc(S(=O)(=O)N2CCCC(C)C2)cc1 (stereo not given)	-5%	-1.3%	nt	18%
CC(=O)NCCc1ccc(-c2csc(NC(=O)C3CC(=O)N(C4CCCC4)C3)n2)cc1 (stereo not given)	2%	3.4%	nt	nt
O=C(O)c1cccc(NC(=S)NC(=O)c2ccc(-c3ccccc3)cc2)c1	-2%	1.4%	4	-13%
CN(C)CCCNC(=O)CCC1CCCCC1	-6%	-0.1%	-2	0%
Cc1ccc(S(=O)(=O)Nc2cccc(C(=O)NCC3CCCO3)c2)cc1F (stereo not given)	6%	-3.4%	nt	nt
COc1ccccc1N1CCN(C(=O)COc2ccc(Cl)cc2Br)CC1	5%	-4.1%	-6	13%
COc1ccc(N(C(=O)c2ccco2)C(C(=O)NC2CCCC2)c2cc(OC)c(OC)c(OC)c2)cc1 (stereo not given)	-12%	-0.1%	nt	-1%
CCn1c(=O)c2ccccc2n2c(SCC(=O)N3CCc4ccccc4C3)nnc12	-1%	-4.8%	4	-1%
CCOC(=O)c1sc2ncnc(N3CCN(c4ccc(OC)cc4)CC3)c2c1C	7%	2.5%	2	-4%
CCOC(=O)N1CCN(C(c2ccccc2)c2sc3nc(C)nn3c2O)CC1 (stereo not given)	6%	-1.5%	-9	2%
O=S(=O)(Nc1ccc(Cc2ccncc2)cc1)c1ccc(Cl)c(Cl)c1	-9%	-4.3%	0	9%
CCCc1cc2nnc(SCC(=O)N(C)C3CCCCC3)n2c(N)n1	-11%	-1.3%	nt	1%
COC(=O)c1cc(OC)c(OC)cc1NC(=O)c1cc(C(C)(C)C)oc1C	-13%	0.8%	-4	-1%
COc1ccc(-n2nc3c(c2NC(=O)c2ccc(S(=O)(=O)N4CCOCC4)cc2)CS(=O)(=O)C3)cc1	-9%	0.5%	-10	-1%
Cc1cc(N2CCN(C)CC2)nc(N2CCOCC2)n1	1%	?	-8	-4%
N#Cc1nc(-c2ccccc2Cl)oc1NCc1ccco1	-10%	-2.2%	-6	-43%
O=C(Nc1ccc2c(c1)CCC2)c1c(F)cccc1Cl	15%	-1.6%	-2	-53%
COc1cc(Br)c(C2CC(=O)Nc3cc(OC)c(OC)cc32)cc1OC (stereo not given)	-11%	-1.6%	nt	-12%
Cc1ccc2c(c1)[nH]c1c(=O)n(CCC3=CCCCC3)cnc12	nt	nt	6	-7%
Cc1cc(C(F)(F)F)c(C#N)c(SCC(=O)NC2CC2)n1	1%	-1.8%	23	-3%
COC(=O)c1ccc(CC(=O)c2c(C)cc(O)cc2O)o1	-7%	?	-2	-10%
Nn1c(SCC(=O)Nc2cccc(Br)c2)nnc1C1CC1	-28%	2.7%	nt	nt
Cc1ccc(C)c(NC(=O)CCN2C(=O)[C@@H]3Cc4ccccc4CN3C2=O)c1	15%	-4.3%	nt	0%
O=C1CC(N2CCN(CCc3ccccn3)CC2)C(=O)N1c1ccc(Cl)cc1 (stereo not given)	-17%	5.3%	9	-2%
CCCCC1CCC(C(=O)N(CCCC)c2c(N)n(CCCC)c(=O)[nH]c2=O)CC1 (stereo not given)	13%	-1.5%	nt	-4%
CCOC(=O)C(NC(=O)c1ccccc1)(N1CCOCC1)C(F)(F)F (stereo not given)	-2%	-3.0%	-8	-8%
O=C(CCN1C(=O)/C(=C\C=C\c2ccccc2)SC1=S)Nc1ccc(C(=O)O)cc1	-9%	?	nt	-17%
O=C(NC(=S)Nc1nc(-c2cccc([N+](=O)[O-])c2)cs1)c1cc(Cl)ccc1Cl	2%	1.5%	-6	-7%

High-throughput results deposited in PubChem BioAssay by National Center for Advancing Translational Sciences (NCATS).

Only part of the results is shown; count on the stated rates, not on these rows.
